# High-throughput results from PubChem.
# D2 agonist – human D2 receptor agonism in beta-arrestin assay; P14416; DiscoveRx PathHunter D2 beta-arrestin, luminescence, 90 min; 100% = 57 uM dopamine signal; activation, % (test concentration not listed); 0.084% of 360,000 active; AID 624465; in the data active = activation above about 40%; inconclusive = about 15% to 40%; inactive = below about 15%; also: compound concentration not given in the record; the text of the record calls up to 30% inactive
# Target sequence (P14416 whole entry, looked up): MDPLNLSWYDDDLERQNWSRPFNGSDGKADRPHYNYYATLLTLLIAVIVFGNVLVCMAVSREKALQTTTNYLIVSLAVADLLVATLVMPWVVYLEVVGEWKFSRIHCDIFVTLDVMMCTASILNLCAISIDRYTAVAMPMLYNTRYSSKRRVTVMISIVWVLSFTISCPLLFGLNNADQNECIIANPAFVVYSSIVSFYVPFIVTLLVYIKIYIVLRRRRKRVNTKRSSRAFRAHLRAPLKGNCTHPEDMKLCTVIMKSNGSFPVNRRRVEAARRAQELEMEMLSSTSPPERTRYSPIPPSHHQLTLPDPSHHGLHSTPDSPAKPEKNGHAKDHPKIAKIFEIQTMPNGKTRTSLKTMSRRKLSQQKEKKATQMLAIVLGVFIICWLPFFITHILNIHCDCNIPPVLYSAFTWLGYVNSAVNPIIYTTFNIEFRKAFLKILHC
#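 DiscoveRx PathHunter D2 beta-arrestin cells (2,100/well) attached overnight, then compound-stimulated 90 min at 37 C in HBSS/10 mM HEPES/0.1% Tween-20 buffer; beta-galactosidase complementation read by luminescence after 1 h at ambient temperature. Dopamine 57 uM final (EC100) as control.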
# Menin MLL FP FL – displaces fluorescein MLL peptide from human menin; Fluorescence polarization, fluorescein-MLL peptide displacement from menin; FP activity change, % at 61.4 µM; 290,000 tested, under 10 active; inconclusive = falling polarisation curve, or a change in total fluorescence; inactive = total fluorescence flat and polarisation flat or rising; no compound was filed as active; the % refers to the polarisation; negative = inhibition;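 also: % of control where 0% means no effect; inhibitors lower the polarisation; unlabelled MLL peptide was the positive control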
# ClpP mod – qHTS Assay for Activators of ClpP; purified B. subtilis ClpP, FRET peptide cleavage, 20 min; Potency, µM (top dose mostly 57.5 µM), inactives show at the top dose activity change, negative = active; 1.9% of 340,000 active; AID 651965, 2013; active = well fitted falling curve with a large enough effect; inconclusive = small, poorly fitted or top-dose-only effect; inactive = no such curve, though single readings can be large or run the other way; also: potency is read from the fitted curve at half-maximal effect; the source files actives as falling curves though it sought activators and does not explain the sign; nearly all actives have a fitted effect of over 65% in size; many hits overshoot -100%
# Target sequence (P80244 whole entry, looked up): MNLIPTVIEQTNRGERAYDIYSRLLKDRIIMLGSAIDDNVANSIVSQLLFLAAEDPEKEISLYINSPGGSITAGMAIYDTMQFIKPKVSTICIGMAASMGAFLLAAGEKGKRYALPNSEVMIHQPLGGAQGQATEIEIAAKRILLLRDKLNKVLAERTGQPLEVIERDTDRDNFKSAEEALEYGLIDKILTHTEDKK
#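 ClpP 10 microg/mL final, pH 8 Tris/KCl buffer with BSA, glycerol, Tween-20; compound pinned in; FRET-FV substrate; RT 20 min; Ex320/Em430; ΔFRET vs ADEP 5.8 microM, DMSO, no enzyme.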
# PINK1 expr mod – PINK1 expression modulation | PINK1 immunofluorescence, high-content cytometry, 24 h | Potency, µM (titrated, usually from 76.6 µM), for inactives: at the top dose activation (PINK1 increase), hits mostly activators | 0.2% of 410,000 active | AID 624263; active = well fitted activation curve with a large enough effect; inconclusive = small, poorly fitted or top-dose-only effect; inactive = flat fitted curve, though single readings scatter; cell line not stated here;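 also: potency is read from the fitted curve at half-maximal effect; % of control where 0% means no effect; nearly all actives have a fitted effect of over 65% in size; a mitochondrial uncoupler was the plate control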
#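 Decision-based qHTS: stable cells, 24 h exposure to five compound concentrations, CCCP as control. Fixed cells stained for PINK1 plus nuclear, mitochondrial and cell markers, cytometer read.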
# gsp antag – antagonizes gsp, the McCune-Albright syndrome mutation | gsp-mutant cells, cAMP HTRF, 30 min; control for the full effect not named in the record | Potency, µM (top dose mostly 76.9 µM), inactives show at the top dose activity change, negative = inhibition, actives largely listed as inhibitors | 0.4% of 340,000 active; active = falling curve of any shape with a large fitted effect; inconclusive = falling curve, mostly with a smaller effect; inactive = flat or rising curve; cell line not stated here;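 also: intracellular cAMP measured with PDE inhibitor Ro 20-1724 present during compound exposure; potency is read from the fitted curve at half-maximal effect; % is scaled to controls: 0 for no effect and ±100 for the full control effect; nearly all actives have a fitted effect of over 65% in size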
#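 HTRF cAMP read-out (cAMP-d2 plus anti-cAMP antibody-K in lysis buffer, 30 min RT). Before lysis, cells are exposed to compounds with […] for 30 min at 37C in DPBS containing Ca/Mg, BSA and Tween 20.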
# gsp agonist – gsp mutant agonism; gsp mutant cells, cAMP HTRF, 30 min; control for the full effect not named in the record; Potency, µM (highest dose often 76.9 µM), without a hit: at the top dose activation (cAMP increase), most hits filed as activators; 0.13% of 340,000 active; AID 624287; active = well fitted activation curve with a large enough effect; inconclusive = small, poorly fitted or top-dose-only effect, or another doubt; inactive = no such curve, though single readings can be large or run the other way; cell line not stated here;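 also: phosphodiesterase inhibitor Ro 20-1724 added with compounds to block cAMP breakdown; potency is read from the fitted curve at half-maximal effect; nearly all actives have a fitted effect of over 60% in size; about a fifth of the inactives were tested at one dose only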
#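 Cells in DMEM/10% FBS with G418 were pretreated with compounds in DMSO plus […] (300 uM stock) for 30 min at 37C. cAMP was measured by HTRF (cAMP-d2 plus anti-cAMP antibody-K) after 30 min at room temperature.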
# Sfp PPTase inh – blocks B. subtilis Sfp PPTase activity | Biochemical Sfp PPTase activity, qHTS | Potency, µM, for the others: max response, negative = inhibition, most hits filed as inhibitors | 3.5% of 310,000 active; active = well fitted inhibition curve with a large enough effect; inconclusive = small, poorly fitted or top-dose-only effect, or another doubt; inactive = no such curve, though single readings can be large or run the other way;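 also: the enzyme is Sfp with the accession as filed and its product quenches rhodamine fluorescence; potency is read from the fitted curve at half-maximal effect; 0% = enzyme reaction without inhibitor and -100% = no enzyme wells; top concentration of the series not given in the record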
#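 Compounds were incubated with enzyme (final 15 nM) for 15 min at room temperature before substrate addition started the reaction. Fluorescence at 525 nm excitation, 598 nm emission was recorded immediately and after 30 minutes.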
# An asterisk follows results filed as active; ? = inconclusive; . = no result given; [ ] = remark or other dose.
SMILES,D2 agonist,Menin MLL FP FL,ClpP mod,PINK1 expr mod,gsp antag,gsp agonist,Sfp PPTase inh
O=c1[nH]c(=S)[nH]c(O)c1N=Nc1ccc(SC(F)F)cc1,-8.1,1.6,.,-0.9%,-12%,16%[15.4 µM],-21%
CC(C)OP(=O)(OC(C)C)C(NCc1ccccc1)c1ccccc1 (configuration not stated),-2.4,-0.9,-5.1%,0.4%,-2%,-2%[15.4 µM],-4%
O=C1CC2OCC=C3CN4CCC56c7cc([N+](=O)[O-])ccc7N1C5C2C3CC46 (configuration not stated),-3.0,-1.8,0.8%,-1.1%,2%,-34%[inhibitor],-2%
COc1ccc(NC2Oc3cc4c(cc3C(c3cc(OC)c(OC)c(OC)c3)C2C)OCO4)cc1 (configuration not stated),8.1,.,-8.4%,11%,13%,21%,.
Cc1ccc2c(c1)c(=O)c1c3n2CCN(CC2CO2)C3CC1 (configuration not stated),-1.3,-2.4,.,-2.6%,-7%,-13%,16%
CCN(CC)c1ccc(N=Cc2c(O)n(-c3cc(OC)ccc3OC)c(=O)[nH]c2=O)cc1,0.4,?,-0.5%,-0.5%,-14%,-2%,-4%
CC(=O)O[C@@H]1CC[C@]2(C)C3CC[C@]4(C)C(=O)[C@H](O)CC4C3[C@@H](OC(C)=O)C[C@H]2C1 (some centres not stated),-1.0,.,.,2.0%,2%,-37%[inhibitor],.
O=C(NC1CCCCCC1)c1ccc[nH]c1=S,-2.5,-6.1,-0.3%,1.5%,-1%,1%[15.4 µM],?
C=C(C)Cn1c(=O)n(CC2CS2)c2ccccc21 (configuration not stated),-0.9,3.1,-4.0%,-0.9%,10%,-15%,11%
CC(=Nc1ccc2c(c1)CCC2)c1c(O)n(C2CCCCC2)c(=O)[nH]c1=O,2.1,5.5,-5.1%,0.5%,-2%,-18%,5%
COc1cccc(Cn2c(-c3cccs3)noc2=O)c1,-1.0,-1.9,-3.4%,?,7%,-57%[inhibitor],14%
CN1C(=O)/C(=C/c2cccn2-c2ccc3ccccc3c2)C(=O)NC1=S,0.9,?,-3.3%,5.8%,9%,1%,56µM*
Cc1ccc(S(=O)(=O)Cc2ccc(C(=O)N3CCC4(CC3)OCCO4)o2)cc1,1.8,5.3,0.0%,-0.8%,-13%,-10%,-4%
CCCCC1(CC)COP(=O)(OCC(Cl)(Cl)Cl)OC1 (configuration not stated),-2.3,.,.,-0.4%,9%,-82%,.
NC12CN3CN(CN(C3)C1)C2 (tested in a mixture with another compound),-0.6,-5.1,-0.5%,.,-3%,1%,6%
COC(=O)C1=C(c2cc3ccccc3s2)C[C@@H]2CC[C@H]1N2C(=O)N1CCCC1,0.2,.,1.4%,0.7%,-14%,.,.
Cc1cc(OCC(=O)N2C[C@H]3C[C@@H](C2)c2cccc(=O)n2C3)c2c(C)cc(=O)oc2c1,2.3,1.0,4.0%,0.5%,-6%,-77%[inhibitor],5%
COc1cccc(C(c2nnnn2-c2c(C)cccc2C)N2CCC(n3c(=O)[nH]c4ccccc43)CC2)c1OC (configuration not stated),11,.,0.0%,2.3%,.,.,.
C/C=C1/CN2C3CC1C(CO)(C(=O)OC)C2Cc1c3n(C)c2ccccc12 (configuration not stated),-4.1,-13,-18%,4.0%,1%,-38%[inhibitor],4%
CN1CCc2cc3c(cc2C1O)OCO3 (configuration not stated),.,-2.1,.,-0.6%,.,.,13%
O=C(NC(=S)N1CC1)c1ccccc1,-3.4,.,-2.4%,11%,.,48%,.
COc1cc(OC)cc(C(=O)NC(=S)N2C[C@H]3C[C@H](C2)c2cccc(=O)n2C3)c1,-5.4,0.3,-0.6%,-0.5%,1%,.,-23%
CC1CCN(C(=O)c2ccc(N3CC4CC(C3)c3cccc(=O)n3C4)c([N+](=O)[O-])c2)CC1 (configuration not stated),2.8,2.6,-3.5%,-2.9%,-8%,-5%,7%
COC(=O)CC1(Cc2ccccc2)C(=O)NC(=O)NC1=O,-3.2,-2.3,-0.5%,4.9%,6%,-1%,10%
C[C@]12CCC3C(CCC4=CC(O)CC[C@@]43/C=N/O)C1(O)CCC2C1=CC(=O)OC1 (some centres not stated),1.1,0.0,.,-0.8%,5%,5%,18%
SMILES,D2 agonist,Menin MLL FP FL,ClpP mod,PINK1 expr mod,gsp antag,gsp agonist,Sfp PPTase inh
Nc1ccc(-c2ccc(N)cc2)cc1,1.0,.,-28%,2.5%,-17%,-79%[inhibitor],.
COc1ccccc1N1CCN(C2CCCN(C(=O)COc3ccccc3Cl)C2)CC1 (configuration not stated),-7.0,0.3,0.9%,0.7%,-2%,2%[15.4 µM],11%
C=CCn1c(O)c(C(C)=NCCN2CCN(C(=S)NC)CC2)c(=O)[nH]c1=O,8.1,3.5,1.3%,0.1%,13%,-1%[15.4 µM],0%
O=C(N/N=C/c1c(O)n(-c2cccc3ccccc23)c(=O)[nH]c1=O)c1ccncc1,5.2,?,.,1.3%,-10%,10%[15.4 µM],2%
O=c1c2ccccc2nc(-c2ccccc2)n1-c1ccccn1,-3.5,2.6,0.0%,1.8%,2%,-5%,6%
Oc1c(Br)cc(Br)cc1CN1CCN(Cc2ccccc2)CC1,-2.7,3.5,-2.5%,4.3%,-8%,?,-9%
N#CC1=C(N)Oc2c(c(=O)oc3ccccc23)C1c1ccncc1 (configuration not stated),-0.3,1.5,4.2%,-1.0%[38.3 µM],-27%,?,2%
CCCn1cc(CN2CCCC(C(=O)c3cccc(OC)c3)C2)c(C)n1 (configuration not stated),-0.9,6.2,-6.9%,1.5%,12%,0%,16%
CCC(=NCc1ccco1)c1c(O)n(-c2ccc(OC)cc2)c(=O)[nH]c1=O,1.2,3.3,-0.1%,0.3%,-12%,1%,-2%
COC(=O)N(c1ccc(OC)cc1)P1(=S)OCCC(C)O1 (configuration not stated),-2.0,2.8,-0.6%,-1.4%,7%,-8%,13µM*
FC(F)(F)Oc1ccc(NC2=NCCCS2)cc1,-7.2,-0.3,3.1%,-0.1%,12%,0%,9%
CCS(=O)(=O)CCSP(=O)(OC)OC,-3.5,.,-1.5%,1.3%,10%,-6%[15.4 µM],.
O=C(NCc1ccc2c(c1)OCO2)c1cc(-n2cnnc2)ccc1Cl,-2.7,?,-2.4%,.,2%,11%,-1%
CCOc1ccc(-n2c(O)c(C=Nc3ccc(N4CCOCC4)cc3)c(=O)[nH]c2=O)cc1,-2.5,0.7,3.5%,-1.7%,-1%,19%,0%
CC1C(c2cccs2)=[N+]([O-])C(C)(C(=O)c2ccc(Cl)cc2)N1O (configuration not stated),-2.9,.,-1.7%,-1.0%,8%,-6%,.
CC1CCCN(C(=O)CCl)C1 (configuration not stated),-0.3,2.4,.,1.0%,7%,14%[15.4 µM],0%
COc1ccc(C2=NCC(=O)N(CC(=O)NCc3ccco3)c3sc4c(c32)CCCC4)cc1OC,0.5,3.6,-0.2%,.,-4%,5%,50µM*
Cc1cc(C(=O)OCC(=O)Nc2ccc(F)cc2)c(C)n1C1CC1,3.0,.,-0.3%,-1.8%,7%,-4%,.
O=c1cccc2n1C[C@@H]1C[C@@H]2CN(CC(O)c2ccc([N+](=O)[O-])cc2)C1 (some centres not stated),3.3,5.2,-1.0%,-0.9%,-7%,6%,5%
O=c1[nH]c(=S)n(-c2ccc(Br)cc2)c(O)c1C=Nc1ccc(N2CCOCC2)cc1,-0.7,?,-4.2%,-0.6%,3%,8%[15.4 µM],?
CCOC(=O)CC(SP1(=S)OCC2(CC=CCC2)CO1)C(=O)OCC (configuration not stated),2.0,.,-0.8%,1.1%,?,22%,.
CCc1ccc(N2C(=O)CC(=O)NC2=O)cc1,-2.0,3.5,0.0%,1.4%,1%,-24%,13%
Cc1cccc(CNCCc2c[nH]c3ccccc23)c1,0.0,-1.7,.,5.2%,-1%,?,-19%
CC(CC(C)(C)N1CC1)=NNC(=O)Nc1cccc2ccccc12,-1.3,.,?,-1.5%,8%,?,.
C/C=C1/CC(C)C(C)(O)C(=O)OCC2CCN3CCC(OC1=O)C23 (configuration not stated),-1.6,8.6,.,0.6%,5%,-8%[15.4 µM],11%
SMILES,D2 agonist,Menin MLL FP FL,ClpP mod,PINK1 expr mod,gsp antag,gsp agonist,Sfp PPTase inh
CN(C)S(=O)(=O)c1cccc(C(=O)N2CCC(C(=O)O)(c3ccccc3)CC2)c1,-0.8,-0.9,-1.2%,3.8%,-2%,0%[15.4 µM],4%
CCCCSP(=O)(SCCCC)SCCCC,.,0.0,.,1.4%,.,.,2%
Cc1nn(Cc2ccccc2)c(C)c1C(=O)NCc1ccccc1,-4.9,1.1,.,-0.7%,14%,0%[15.4 µM],15%
COc1cc(/C=N/NC(=O)CN2CC(c3ccccc3)CC2=O)ccc1OC(=O)N(C)C (configuration not stated),-0.4,3.5,-4.8%,-3.0%,1%,4%,13%
COCC(=O)N1Cc2ccccc2-n2nncc2C1,0.6,.,1.8%,-1.5%,11%,.,.
O=C1CN=C(c2ccc(Br)cc2)c2oc3ccccc3c2N1,-1.2,-9.0,-2.1%,3.6%,1%,-38%[inhibitor],-11%
COc1c2c(c(CC=C(C)C)c3oc(=O)c(-c4ccc(O)cc4)c(O)c13)OC(C)(C)C=C2,.,-0.2,.,0.9%,.,.,0%
S=C1NCCN1,-0.4,6.0,1.5%,0.7%,-9%,.,-10%
Nc1cccc(N=Cc2c(O)n(Cc3ccc(F)cc3)c(=O)[nH]c2=O)c1,4.0,1.7,-1.6%,-0.6%,-5%,14%,1%
FC(F)(F)c1cccc(-n2nnnc2C2(N3CCOCC3)CCCCC2)c1,1.9,1.5,-0.3%,2.4%,-6%,-15%,19%

# Filtered by structure: the entries above containing bromine.
SMILES,D2 agonist,Menin MLL FP FL,ClpP mod,PINK1 expr mod,gsp antag,gsp agonist,Sfp PPTase inh
Oc1c(Br)cc(Br)cc1CN1CCN(Cc2ccccc2)CC1,-2.7,3.5,-2.5%,4.3%,-8%,?,-9%
O=c1[nH]c(=S)n(-c2ccc(Br)cc2)c(O)c1C=Nc1ccc(N2CCOCC2)cc1,-0.7,?,-4.2%,-0.6%,3%,8%[15.4 µM],?
O=C1CN=C(c2ccc(Br)cc2)c2oc3ccccc3c2N1,-1.2,-9.0,-2.1%,3.6%,1%,-38%[inhibitor],-11%

# The list is partial (hit frequency here may not be typical).
